# eIF4H inh – inhibitors of RNA binding by human eIF4H; Q15056; eIF4H fluorescence polarization binding assay; inhibition, % at 35 µM; 290,000 tested, 0.94% active;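 active = 50% or more with normal probe brightness, or confirmed in later tests; inconclusive = above 50% with abnormal brightness, or retests that disagree; inactive = below 50% or failed in later tests; about a fifth of its hits are not listed in these tables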;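 note: calls also rest on retests at 20 µM and on dose response follow-up; 0% = protein and probe with vehicle and 100% = probe without protein; strong numbers were not always called active; many hits fall short of the cut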
# CSC inhib – blocks cancer stem cells. cancer stem cell-like cells viability, luminescence. 300,000 tested, 1.1% active. inhibition, % at 7.5 µM;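 active = mean at 75% or more and at least half the replicates too; inconclusive = mean and replicates disagree; tested in HMLE shEcad cells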;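 note: 0% = median of negative and 100% = median of positive control wells; the first replicate is given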
# Rce1 inhib – blocks yeast Ras-converting enzyme; Q03530; yeast membranes, quenched prenylated peptide cleavage fluorescence; calls only; 290,000 tested, 0.27% active; AID 2563;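 active = fall in fluorescence gain of 50% or more versus controls, with final raw signal at or below 3038400; inconclusive = same 50% fall but final raw signal above 3038400; inactive = fall in fluorescence gain under 50%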;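 note: plate controls were neutral control wells for no effect and wells lacking membranes for full effect; tested at 10 µM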
# Target sequence (Q03530 whole entry, looked up): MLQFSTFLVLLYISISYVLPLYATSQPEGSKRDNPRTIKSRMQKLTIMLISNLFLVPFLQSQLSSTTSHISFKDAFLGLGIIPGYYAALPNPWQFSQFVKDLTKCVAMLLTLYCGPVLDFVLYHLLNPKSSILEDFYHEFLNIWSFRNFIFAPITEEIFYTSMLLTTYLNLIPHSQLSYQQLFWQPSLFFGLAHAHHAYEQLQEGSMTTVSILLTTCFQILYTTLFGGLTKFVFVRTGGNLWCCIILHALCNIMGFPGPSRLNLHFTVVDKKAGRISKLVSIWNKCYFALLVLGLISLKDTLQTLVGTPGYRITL
# MT1-MMP act inh – blocks activation of human MT1-MMP. P50281. HT1080 RFP-PRO-GFP cells, GFP/RFP ratio fluorescence, overnight; percent of plate control window, DMSO zero. GFP/RFP ratio change, % at 20 µM. 360,000 tested, 0.061% active. AID 651647;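 active = GFP/RFP ratio change of at least 30% with cell ATP level not reduced by more than half and red fluorescence within 50% of control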; note: strong numbers were not always called active
#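 Assay system: RFP-PRO-GFP reporter HT1080 cells; read-out basis: GFP/RFP fluorescence ratio; benchmarks: DMSO wells and RFP-L50D-GFP cells; doses: 20 µM single dose, 1% DMSO; schedule: overnight cell settling, then overnight compound exposure, 37 °C, 5% CO2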
# UUG fidelity – alters start codon recognition fidelity in yeast | S. cerevisiae UUG-firefly luciferase reporter, luminescence/redox ratio | 350,000 tested, 0.13% active | activity score, % at 18.7 µM;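 active = replicate mean at a twofold rise or more, about +100% in these data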;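 note: firefly luciferase made from a UUG start codon reports start codon fidelity; reporter light over untreated wells divided by growth signal over untreated wells; some hits fall short of that in this replicate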
# Env fusion inh – HIV envelope-mediated fusion inhibition | HeLa-JRFL Env/CEM21 cell fusion, luciferase | inhibition, % at 12.3 µM | 360,000 tested, 1.1% active | AID 651610;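 active = mean replicate inhibition score of at least 50 and every replicate individually at or above 50; inconclusive = only one of the two criteria met; inactive = mean below 50 and not all replicates reaching 50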;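 note: 0% = plate neutral controls and 100% = maraviroc near 300 nM; one replicate is shown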
# PABP polyA inh – blocks human PABP binding to poly(A) RNA. AID 2014. P11940. fluorescence polarization. inhibition, % at 35 µM. 290,000 tested, 1% active;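 active = 50% or more with normal probe brightness, or confirmed in later tests; inconclusive = above 50% with abnormal brightness, or retests that disagree; inactive = below 50% or failed in later tests; about a fifth of its hits are not listed in these tables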;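 note: calls also rest on retests at 20 µM and on dose response follow-up; controls were probe without protein and protein plus probe with vehicle; some compounds called inactive have numbers as strong as hits; many hits fall short of the cut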
# Target sequence (P11940 whole entry, looked up): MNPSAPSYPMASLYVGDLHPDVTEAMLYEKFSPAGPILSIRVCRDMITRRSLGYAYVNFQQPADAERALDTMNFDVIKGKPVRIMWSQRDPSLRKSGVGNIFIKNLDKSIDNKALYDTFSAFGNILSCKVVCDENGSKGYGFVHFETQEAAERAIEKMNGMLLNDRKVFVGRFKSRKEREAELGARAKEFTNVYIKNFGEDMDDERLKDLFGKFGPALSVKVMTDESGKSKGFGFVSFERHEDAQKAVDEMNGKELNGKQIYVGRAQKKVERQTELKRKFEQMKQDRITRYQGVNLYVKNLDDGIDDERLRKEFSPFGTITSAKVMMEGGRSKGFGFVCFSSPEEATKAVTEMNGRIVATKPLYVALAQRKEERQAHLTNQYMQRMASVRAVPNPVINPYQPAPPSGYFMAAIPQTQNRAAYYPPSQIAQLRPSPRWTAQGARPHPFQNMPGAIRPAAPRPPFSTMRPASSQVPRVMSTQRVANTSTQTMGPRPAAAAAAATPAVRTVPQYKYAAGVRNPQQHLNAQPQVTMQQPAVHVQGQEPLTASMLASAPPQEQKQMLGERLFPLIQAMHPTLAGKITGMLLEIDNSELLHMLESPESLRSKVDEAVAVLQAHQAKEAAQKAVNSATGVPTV
# eIF4H inh retest – recorded beside eIF4H inh, whose call it bears; inhibition, %; compound at 20 µM; confirmation average;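 mean of two retest wells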
# PABP polyA inh retest – recorded beside PABP polyA inh, whose call it bears; inhibition, %; compound at 20 µM; confirmation repeats;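 mean of two retest wells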
# MT1-MMP act inh RFP – further read-out of MT1-MMP act inh, marked with its call; RFP signal change, %; measured here: RFP expression control read;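 0 = vehicle wells; hits needed this value within 50% of zero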
# * = called active by the depositor; i = inactive; u = inconclusive; x = no result given. Not all compounds are listed; rates above refer to the full screens.
# The first 14 records (preview)
SMILES,eIF4H inh,CSC inhib,Rce1 inhib,MT1-MMP act inh,MT1-MMP act inh RFP,UUG fidelity,Env fusion inh,PABP polyA inh,others
COc1ccc(S(=O)(=O)N2CCC(C(=O)NN3CCCCC3)CC2)cc1,x,x,x,-2,5,-25,-28,x,
CCN(CC)CCNC(=O)C12CC3CC(C)(CC(C)(C3)C1)C2,-20,0,i,7,-2,20,x,-8,
O=C(O)CN1C(=O)CCS(=O)c2ccccc21 (configuration not stated),7,-9,i,-2,7,-27,6,1,
CC(NC(=O)c1c(O)c2ccccc2n(C)c1=O)c1ccccc1 (configuration not stated),-6,-6,x,2,3,-21,-9,2,
CCOC(=O)[C@H]1[C@H]2COc3ccc(C)cc3[C@@H]2N2C(=O)[C@@H](C)NC(=O)[C@@]12C,x,-33,x,0,2,-10,-33,x,
Cc1oc(-c2ccc(Cl)cc2)nc1CS(=O)CC(=O)NCCCN(C)C1CCCCC1 (configuration not stated),16,-1,i,-1,2,-13,-15,7,
CC(C)[C@H](NC(=O)[C@@H]1Cc2c([nH]c3ccccc23)C2c3ccccc3C(=O)N21)C(=O)N1CCC[C@@H]1C(=O)O (some centres not stated),0,-1,i,-2,-1,-14,x,21,
O=C(NC1CCCCCCC1)c1cnccn1,3,-2,i,-2,3,-13,x,14,
CC(=O)Nc1ccc(NC(=O)C(C)c2cccc(C(=O)c3ccccc3)c2)cc1 (configuration not stated),-6,1,i,5,-1,x,13,-3,
CCOC(=O)Cc1csc(NC(=S)NC(=O)c2ccccc2)n1,7,-16,i,0,-1,x,12,-6,
Cc1ccccc1C(=O)Nc1nnc(CC(=O)N/N=C/c2ccncc2)s1,-5,0,i,-3,0,5,0,4,
Cc1ccc(C)c(NC(=O)C2CCCN2C(=O)NC2CCCCC2)c1 (configuration not stated),-1,-4,i,2,2,x,-3,7,
Cc1nn(C(=O)c2nn(C)cc2Cl)c(C)c1Br,-8,-24,i,3,3,x,12,-14,
COc1ccc(-c2noc(CCCC(=O)NCC3CCCO3)n2)cc1 (configuration not stated),23,-3,i,-5,-3,7,4,16,

# Main list (from the top)
SMILES,eIF4H inh,CSC inhib,Rce1 inhib,MT1-MMP act inh,MT1-MMP act inh RFP,UUG fidelity,Env fusion inh,PABP polyA inh,others
COc1ccc(S(=O)(=O)N2CCC(C(=O)NN3CCCCC3)CC2)cc1,x,x,x,-2,5,-25,-28,x,
CCN(CC)CCNC(=O)C12CC3CC(C)(CC(C)(C3)C1)C2,-20,0,i,7,-2,20,x,-8,
O=C(O)CN1C(=O)CCS(=O)c2ccccc21 (configuration not stated),7,-9,i,-2,7,-27,6,1,
CC(NC(=O)c1c(O)c2ccccc2n(C)c1=O)c1ccccc1 (configuration not stated),-6,-6,x,2,3,-21,-9,2,
CCOC(=O)[C@H]1[C@H]2COc3ccc(C)cc3[C@@H]2N2C(=O)[C@@H](C)NC(=O)[C@@]12C,x,-33,x,0,2,-10,-33,x,
Cc1oc(-c2ccc(Cl)cc2)nc1CS(=O)CC(=O)NCCCN(C)C1CCCCC1 (configuration not stated),16,-1,i,-1,2,-13,-15,7,
CC(C)[C@H](NC(=O)[C@@H]1Cc2c([nH]c3ccccc23)C2c3ccccc3C(=O)N21)C(=O)N1CCC[C@@H]1C(=O)O (some centres not stated),0,-1,i,-2,-1,-14,x,21,
O=C(NC1CCCCCCC1)c1cnccn1,3,-2,i,-2,3,-13,x,14,
CC(=O)Nc1ccc(NC(=O)C(C)c2cccc(C(=O)c3ccccc3)c2)cc1 (configuration not stated),-6,1,i,5,-1,x,13,-3,
CCOC(=O)Cc1csc(NC(=S)NC(=O)c2ccccc2)n1,7,-16,i,0,-1,x,12,-6,
Cc1ccccc1C(=O)Nc1nnc(CC(=O)N/N=C/c2ccncc2)s1,-5,0,i,-3,0,5,0,4,
Cc1ccc(C)c(NC(=O)C2CCCN2C(=O)NC2CCCCC2)c1 (configuration not stated),-1,-4,i,2,2,x,-3,7,
Cc1nn(C(=O)c2nn(C)cc2Cl)c(C)c1Br,-8,-24,i,3,3,x,12,-14,
COc1ccc(-c2noc(CCCC(=O)NCC3CCCO3)n2)cc1 (configuration not stated),23,-3,i,-5,-3,7,4,16,
CCc1cccc(NC(=O)C2CC2c2ccccc2)c1 (configuration not stated),-4,x,i,1,0,-8,0,7,
CCC(C)(C)NC(=O)CN(C(=O)CNS(=O)(=O)c1ccccc1)c1ccccc1,3,-19,i,1,2,-14,x,-6,
OCCNc1ncnc2c1ncn2[C@H]1CN(Cc2cccs2)C[C@@H](CO)O1,x,x,x,2,1,16,23,x,
CCc1nnc(NC(=O)C2CC(=O)N(Cc3ccccc3)C2)s1 (configuration not stated),0,-6,i,0,6,-13,-5,-10,
COc1ccc(OC)c(C(=O)c2ccc(C(=O)N3CCCCC3)cc2)c1,-11,6,i,-5,-6,-3,13,-16,
CCCCOc1ccc(-c2nnn(CC(=O)c3c[nH]c4ccccc34)n2)cc1,20,-5,i,-3,-1,-3,-5,24,
CCC(=O)Nc1ccc(NC(=O)c2ccc3c(c2)OCO3)cc1,4,1,i,-1,1,-15,x,6,
CC(C)C[C@H](NC(=O)c1nc[nH]c1C(=O)NC1CCNCC1)C(=O)OCc1ccccc1,x,-4,i,-1,5,7,7,x,
COc1ccc(CN2CC(=O)N3[C@H]4c5ccccc5OC[C@@H]4[C@H](c4ccccc4)[C@]3(C)C2=O)cc1,x,4,x,-17,1,-3,-28,x,
Cc1ccc(/C=N/N2C(=O)c3ccccc3NC2c2ccc(C)cc2)cc1 (configuration not stated),2,21,i,0,-2,-23,-62,5,
O=C(NC1CCN(c2ncccn2)CC1)c1ccccc1F,-1,-5,i,6,-2,6,-2,0,

# Continued; it opens with the 2 that closed the last part.
SMILES,eIF4H inh,CSC inhib,Rce1 inhib,MT1-MMP act inh,MT1-MMP act inh RFP,UUG fidelity,Env fusion inh,PABP polyA inh,others
Cc1ccc(/C=N/N2C(=O)c3ccccc3NC2c2ccc(C)cc2)cc1 (configuration not stated),2,21,i,0,-2,-23,-62,5,
O=C(NC1CCN(c2ncccn2)CC1)c1ccccc1F,-1,-5,i,6,-2,6,-2,0,
COc1ccc(NC(=O)COC(=O)C23CC4CC(CC(Cl)(C4)C2)C3)c(OC)c1,16,6,i,4,2,-5,-25,-5,
CCOC(=O)c1[nH]c2ccc(OC)cc2c1NC(=O)c1ccc2c(c1)OCO2,-16,-10,i,2,1,-6,-152,2,
CN(C1=NC(=O)C(CC(=O)Nc2ccc(Br)cc2)S1)c1ccc(O)cc1 (configuration not stated),6,12,i,-11,0,-8,28,-5,
CCCn1c2ccccc2c2nnc(SCc3[nH]c(=O)[nH]c3C(=O)CCCCC(=O)OCC)nc21,-7,-4,i,1,4,x,-24,120,eIF4H inh retest=-5;PABP polyA inh retest=2
Cc1ccc(NC(=O)C2(C)CCN2C(C)C)cc1C (configuration not stated),x,x,x,3,6,-4,-6,x,
Cc1oc(-c2cccs2)nc1CN1CCN(Cc2ccc(F)c(F)c2)C(CCO)C1 (configuration not stated),-3,9,i,-2,-4,-18,2,-7,
OCC(CO)(CO)NCc1ccc(-c2ccccc2)cc1,-4,10,i,-1,-1,40,-25,4,
C/C(=N\NC(=O)C1CCCN(S(=O)(=O)c2ccccc2)C1)c1ccccn1 (configuration not stated),5,31,i,2,1,-24,x,1,
COc1ccc2c(c1)c(CCN1C(=O)c3ccccc3C1=O)cn2C(=O)c1ccco1,4,4,i,3,3,-14,x,-4,
CC1=C(C(=O)Nc2ccccc2)C(c2ccc(C)o2)N2C(=O)CSC2=N1 (configuration not stated),4,-4,i,x,x,x,x,3,
FC(F)(F)c1ccc2c(c1)n(Cc1ccccc1)c1[n+]2CCCCC1,-6,-6,i,-14,-3,-2,-4,-5,
Cc1ccc(S(=O)(=O)N(C)Cc2ccc(C(=O)N/N=C3\CCCC(=O)C3)cc2)cc1,47,18,i,-2,3,-16,22,-3,
Cc1cnc(NC(=O)CN2C(=O)C3CC=CCC3C2=O)s1 (configuration not stated),2,-23,i,-6,2,-17,-23,1,
CCOC(=O)C1CCN(C(=O)C2CC(=O)N(c3ccc4c(c3)OCCO4)C2)CC1 (configuration not stated),19,-8,i,-1,0,-5,x,60*,eIF4H inh retest=32;PABP polyA inh retest=67*
COC(=O)CNc1nc(OC)nc(N(C)C)n1,5,-6,i,4,2,-5,x,-8,
Cc1nn(C)cc1CNC(=O)c1cc2n(n1)C(C(F)(F)F)CC(c1cccs1)N2 (configuration not stated),9,-9,i,0,-6,2,x,10,
CCc1nc(NCC2CC2)c2nnn(Cc3ccccc3)c2n1,x,x,x,3,2,-4,14,x,
Nc1c(C(=O)NCc2ccc(F)cc2)c2nc3ccccc3nc2n1CCCN1CCOCC1,4,u,i,-4,-6,-6,22,5,
Cc1onc(-c2ccccc2)c1C(=O)N/N=C/c1cc(Br)c(O)c(Br)c1,-19,x,i,10,-4,1,1,0,
COC(=O)[C@]1(C)N[C@H](CN(C)C(C)=O)[C@@H]2C(=O)N(Cc3ccccc3)C(=O)[C@@H]21,x,x,x,1,3,11,18,x,
O=C(Nc1cc(Cl)ccc1Cl)c1ccco1,-4,-3,i,2,1,-5,-20,-1,
COc1cc(-c2nc(=S)[nH][nH]2)cc(OC)c1OC,-5,-16,i,4,5,x,-115,2,
CCn1nccc1C(=O)Nc1ccccc1OC,6,-1,i,1,3,-1,-16,-2,
O=C(/C=C/c1ccccc1)N1CCN(c2ccccn2)CC1,-7,-2,x,0,0,-9,-35,-4,
Cc1ccc2nc(Cl)c(/C=N/Nc3ccc(C(=O)O)cc3)cc2c1,6,-15,i,-5,4,x,-242,11,
# The results go on.
SMILES,eIF4H inh,CSC inhib,Rce1 inhib,MT1-MMP act inh,MT1-MMP act inh RFP,UUG fidelity,Env fusion inh,PABP polyA inh,others
COCCCNC(=O)Cn1nnc(-c2ccc(NC(=O)c3ccc(F)cc3)cc2)n1,-4,5,i,2,12,-22,-50,-8,
Cc1nc(-c2nc(-c3c(C(=O)NNC(=O)Nc4ccccc4)noc3C)cs2)cs1,-5,1,i,3,4,x,-35,-3,
CCc1nc(N[C@H](C(=O)O)C(C)CC)c2oc3ccccc3c2n1 (some centres not stated),8,-1,i,1,6,1,x,9,
CC(C)(C)OC(=O)N1CCC(C(=O)Nc2cccc(C(=O)NCCc3ccccc3)c2)CC1,x,x,x,3,-1,-9,17,x,
Cc1ccc(NC(=O)NCCCl)cc1S(=O)(=O)N1CCOCC1,2,1,i,5,1,x,8,4,
Cc1nc2cc(S(=O)(=O)C(F)(F)F)ccc2s1,0,-4,i,0,4,-11,-21,-3,
COc1ccc(CCCNC(=O)C2CCC(=O)N(CCCN3CCCC3=O)C2)cc1 (configuration not stated),-2,-2,i,5,5,1,0,1,
CCC1CCCCN1C(=O)CCNC(=O)Cn1cnc2ccccc2c1=O (configuration not stated),-9,-3,i,-2,1,-6,-2,3,
Cc1cccc(OCC(=O)Nc2nnc(S(=O)(=O)N3CCC(C)CC3)s2)c1,-7,17,i,-3,2,-2,x,6,
COC(=O)c1ccccc1OCCOCCOc1cccc2cccnc12,-2,3,i,3,7,x,10,11,
CCC(C)(C)NC(=O)c1cc([N+](=O)[O-])ccc1N1CCOCC1,6,0,i,-3,-3,-7,10,-4,
Cc1ccccc1NC(=O)Nc1cc(S(N)(=O)=O)ccc1C,1,4,i,2,-2,-9,x,0,
N#C/C(=C(/O)CSc1n[nH]c(N)n1)c1nc2ccccc2[nH]1,14,-10,i,-3,9,x,2,7,
